Rango-impB inh: prevents formation of the Rango-importin beta complex; AID 540263; actives 0.031% (n = 340,000); Q14974; Potency, µM (top dose mostly 92.2 µM), inactives show top-dose inhibition of complex formation; Rango CFP/YFP FRET sensor + importin beta, 45 min; active = rising FRET ratio curve, often small or poorly fitted; inconclusive = mostly compound fluorescence or quenching in the first reads; inactive = flat curves in all reads;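 note: potency is the fitted concentration of half-maximal effect; 0% = DMSO wells and 100% = buffer wells lacking importin beta; nearly all actives have a fitted effect of over 15% in size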
Target sequence (Q14974 whole entry, looked up): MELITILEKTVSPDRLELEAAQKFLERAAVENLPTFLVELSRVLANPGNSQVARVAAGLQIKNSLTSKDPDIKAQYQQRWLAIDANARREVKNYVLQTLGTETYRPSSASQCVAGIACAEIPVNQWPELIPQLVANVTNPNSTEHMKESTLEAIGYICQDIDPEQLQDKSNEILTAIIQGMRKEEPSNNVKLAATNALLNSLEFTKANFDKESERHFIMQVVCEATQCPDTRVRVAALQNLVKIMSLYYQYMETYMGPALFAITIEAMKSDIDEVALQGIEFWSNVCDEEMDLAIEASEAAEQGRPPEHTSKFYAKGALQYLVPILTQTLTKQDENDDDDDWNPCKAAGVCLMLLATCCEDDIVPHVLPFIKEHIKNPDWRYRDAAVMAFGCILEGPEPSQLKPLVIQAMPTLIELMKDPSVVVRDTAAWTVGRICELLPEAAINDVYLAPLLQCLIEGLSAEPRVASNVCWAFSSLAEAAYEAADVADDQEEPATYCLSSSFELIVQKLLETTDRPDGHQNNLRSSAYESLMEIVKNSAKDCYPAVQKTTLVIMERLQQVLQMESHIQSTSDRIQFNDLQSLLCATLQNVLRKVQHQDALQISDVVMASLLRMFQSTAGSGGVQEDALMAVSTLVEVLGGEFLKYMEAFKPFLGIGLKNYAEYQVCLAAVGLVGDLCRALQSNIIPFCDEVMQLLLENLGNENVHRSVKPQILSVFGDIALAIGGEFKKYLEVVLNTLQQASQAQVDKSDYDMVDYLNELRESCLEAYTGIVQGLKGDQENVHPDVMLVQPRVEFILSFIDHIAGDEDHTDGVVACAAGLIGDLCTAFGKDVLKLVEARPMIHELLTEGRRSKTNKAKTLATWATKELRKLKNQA
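FRET biosensor Rango (snurportin 1 IBB between N-terminal EYFP and C-terminal Cerulean), 50 nM in PBS/1 mM DTT/0.02% Tween-20/0.1% BSA, preincubated 5 min RT with compound; 0.125 microM importin beta added, 45 min RT, CFP/YFP FRET ratio read.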
miR-21 FLuc: raises the signal of a miR-21 reporter; Potency, µM (titrated, usually from 38.3 µM), for the others: top-dose reporter change, positive = more light; HeLa miR-21 FLuc reporter, luciferase, 48 h; 340,000 tested, under 10 active; AID 2288; active = well fitted rising curve with a large enough effect; inconclusive = small, poorly fitted or top-dose-only effect; inactive = no such curve, though single readings can be large or run the other way;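 note: % of control where 0% means no effect; miR-21 action dims this reporter so a rising signal means less miR-21 action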
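Compounds were titrated across several concentrations (up to approximately 40 uM) and incubated 48 hours with HeLa miR-21-FLuc reporter cells (miR-21 target sequence downstream of FLuc, endogenous miR-21). Readout was firefly luciferase luminescence after lytic detection reagent.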
Rango release inh: inhibition of RanGTP-driven Rango-importin beta dissociation | AID 540253 | O95149+P62826 | actives 0.071% (n = 340,000) | Potency, µM (series often up to 46.1 µM), without a hit: at the highest dose activity change, negative = inhibition | Biochemical FRET Rango-importin beta, RanGTP-induced dissociation; active means falling FRET ratio curve, often poorly fitted, with flat reads before Ran was added; inconclusive means other falling curves, or compound fluorescence or quenching; inactive means flat or rising ratio curve;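 note: potency is the fitted concentration of half-maximal effect; % of control where 0% means no effect; nearly all actives have a fitted effect of over 45% in size; -100% = wells without RanGTP and RCC1; the record marks most hits as doubtful in a second field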
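Rango/importin beta premix (0.1/0.25 uM final), PBS + 1 mM DTT + 0.02% Tween-20 + 0.1% BSA; cpd 5 min RT; FRET pre-read; + RanGTP-RCC1 (0.6 uM Ran, 2 mM GTP, 0.2 uM RCC1); 45 min RT; FRET post-read, ex 430, em 486/530 nm.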
GLA inh pH 4.5: inhibitors of human alpha-galactosidase A at pH 4.5; P06280; purified enzyme, 4-MU-alpha-Gal fluorescence, pH 4.5; activity change, negative = inhibition, % at 105 µM; 230,000 tested, under 10 active; inconclusive = small, poorly fitted or top-dose-only inhibition, or a rising curve; inactive = flat fitted curve, though single readings scatter; no compound was filed as active;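 note: 0% = full activity with enzyme and -100% = basal without enzyme; dose as in the result columns while the protocol names 77 µM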
Numbers without * were called inactive; ? = inconclusive; nt = no result given; & = joins results of further samples; [ ] = dose if it differs, or a comment.

Rango release inh	Rango-impB inh	GLA inh pH 4.5	miR-21 FLuc	Compound
-7%	-3.4%	11	?	Cc1ccc(C(C)C)c(OCc2nn(CC(=O)c3ccc(OC(F)F)cc3)c3[n+]2CCCCC3)c1
-7%	-0.8%	-3	-3%	CCOC(=O)C(=O)Nc1nnc(SCc2ccc(F)cc2)s1
2%	-6.3%	-2	-1%	CON(c1nc(N(C)C)nc(N(C)C)n1)S(=O)(=O)c1ccccc1Cl
-9%	0.4%	nt	-11%	CSc1ncccc1C(=O)Nc1cccc(C)n1
-9%	-1.5%	-1	3%	Cc1cc(C)cc(OCC(=O)Nc2ccc(N3CCCC3)cc2)c1
-4%	-3.3%	6	-13%	O=C(NCC1OCCc2ccccc21)C1COc2ccccc2O1 (stereo not given)
3%	-1.9%	-8	-10%	COCCN1C(=O)C(O)=C(C(C)=O)C1c1ccc(OC)c(OC)c1 (stereo not given)
-7%	-2.2%	nt	3%	O=C(CCC(=O)NC1CCCCC1)NCc1ccc(F)cc1
?	-2.2%	nt	1%	COCC(=O)N1CCC(Oc2ccc(C(=O)N(C)Cc3nccs3)cc2)CC1
?	?	5	-4%	Cc1oc2cc(O)ccc2c(=O)c1-c1nncn1-c1ccccc1
-4%	0.3%	-5	-4%	CC(Sc1nncn1C)C(=O)Nc1ccccc1-c1ccccc1 (stereo not given)
2%	0.5%	0	-2%	CC(C)NC(=O)C1CCN(C2CCN(CC3CC=CCC3)CC2)CC1 (stereo not given)
5%	-1.7%	-7	0%	C=C1CC(C)OC(c2ccccc2OCC(O)CN2CCCCC2)C1 (stereo not given)
-12%	5.3%	nt	-42%	Brc1ccc(-c2ccc(CNCc3ccccn3)o2)cc1
10%	-1.8%	-5	9%	CCOC(=O)c1c(NC(=O)C(Sc2ccccc2)c2ccccc2)sc(C(N)=O)c1C (stereo not given)
4%	-2.3%	nt	-12%	Brc1ccc(-c2csc(N3CCCCCC3)n2)cc1
15%	-2.4%	nt	nt	CCOc1cc(-c2sc(Nc3ccc(CC)cc3)n[n+]2-c2ccccc2)ccc1OC
5%	-0.2%	-3	-34%	O=[N+]([O-])c1ccc(/C=N/NC(=S)Nc2ccccc2F)o1
5%	1.4%	nt	1%	CCOCCCNC(=O)CN1N=C(c2ccc(C)cc2)CCC1=O
-6%	2.6%	-8[21.1 µM]	-10%	CC1CCC(NC(=O)CN(C)S(=O)(=O)c2cnc[nH]2)CC1 (stereo not given)
10%	-0.3%	-3[21.1 µM]	-1%	NC(=O)CSc1nnc(CSc2ncccn2)n1-c1ccccc1
4%	-0.1%	nt	-1%	COc1cccc(NC(=O)Cc2nnc(SCC(=O)NC3CCCCC3)n2C)c1
-13%	-2.6%	nt	nt	O=C(Nc1ccc(F)c(Cl)c1)C1CC2CCC1C2 (stereo not given)
-5%	0.1%	1	?	N/C(=N\OCc1ccc([N+](=O)[O-])cc1)c1ccccn1
-11%	-0.5%	nt	-17%	COc1ccc(C(=O)Nc2nc3ccc(OC)cc3s2)cc1

Entries from the list above containing a furan ring, fused or not (2):
Rango release inh	Rango-impB inh	GLA inh pH 4.5	miR-21 FLuc	Compound
-12%	5.3%	nt	-42%	Brc1ccc(-c2ccc(CNCc3ccccn3)o2)cc1
5%	-0.2%	-3	-34%	O=[N+]([O-])c1ccc(/C=N/NC(=S)Nc2ccccc2F)o1

(next part)
Rango release inh	Rango-impB inh	GLA inh pH 4.5	miR-21 FLuc	Compound
2%	0.1%	nt	-8%	CC1CCC2C(=O)N(c3cc(Cl)ccc3OC(=O)c3ccco3)C(=O)C2C1 (stereo not given)
11%	0.7%	-4	3%	Cc1c(NC(=O)c2ccc3c(c2)OCO3)cccc1-c1nc2ncccc2o1
-4%	-3.8%	1	-51%	Cc1cccc(NC(=O)C2COc3ccccc3O2)n1 (stereo not given)
-15%	-3.0%	nt	15%	COc1cc(-c2noc(C)c2-c2ccc3[nH]ccc3c2)cc(OC)c1OC
-6%	4.3%	1	-1%	CCOC(=O)c1ccc(NC(=O)c2cc(S(=O)(=O)N3CCOCC3)ccc2O)cc1
10%	2.2%	nt	-6%	Cc1cc(=O)oc2cc(OC(C)C(=O)Nc3ccc(N4CCCCC4)cc3)ccc12 (stereo not given)
-5%	-3.9%	nt	-5%	COc1ccc(-n2ncc3c(N4CCC(C)CC4)ncnc32)cc1
nt	nt	12	4%	O=c1nc2n(Cc3ccccc3)c3ccccc3cc-2c(=O)[nH]1
19%	1.5%	nt	-9%	O=C(COc1ccc2c3c(c(=O)oc2c1)CCC3)N1CCN(c2ccccc2)CC1
-13%	0.0%	nt	nt	COc1ccc(-n2c(SCC(=O)Nc3ccccc3)nnc2-c2ccoc2C)cc1
6%	2.6%	nt	3%	O=C(N/C(=C\c1ccc(F)cc1)C(=O)N1CCOCC1)c1ccccc1
20%	-3.2%	nt	-7%	Cn1c(=O)[nH]c(=O)c2c1[nH]c(=S)n2Cc1ccc(Cl)cc1
12%	-0.4%	-3	-5%	COc1ccc(NS(=O)(=O)c2cccc(C(=O)NNC(=O)c3cc(C)oc3C)c2)cc1
3%	-3.0%	-4	-2%	CCOC(=O)c1cc(C(C)=O)n2ccccc12
-2%	0.3%	nt	nt	CC(C)(C)S(=O)N1Cc2cc(=O)n(Cc3ccccc3)cc2[C@@H]1CCO (stereo not given in full)
-13%	-1.9%	-2	-13%	CC(C)OP(=O)(OC(C)C)C(NC(=O)c1cccc([N+](=O)[O-])c1)C(N)=O (stereo not given)
3%	3.2%	nt	-6%	CCC(C)C(=O)Nc1nnc(SCC(=O)N2C(C)CCCC2C)s1 (stereo not given)
10%	6.9%	1	-28%	OCCN(CCO)c1ncnc2c1oc1ccc(Br)cc12
-11%	-1.9%	-11	-41%	C=CCn1c(C)cc(C(=O)CSc2nc3ccccc3c(=O)[nH]2)c1C
1%	-1.0%	2	-2%	COc1ccc(CCN2C(=O)CC(NNC(=O)c3ccc(F)cc3)C2=O)cc1OC (stereo not given)
8%	3.6%	nt	nt	O=C(NNC(=O)c1cc(-c2ccccc2)nc2ccccc12)c1csc(N2CCOCC2)n1
10%	-2.2%	nt	nt	Cc1ccnc2nc(C(=O)OCC(=O)c3ccc(NC(=O)CC(C)C)cc3)nn12
0%	-1.0%	-2	-17%	O=C(Nc1ccccc1)c1cnc(-c2ccccc2)nc1-c1ccccc1
-9%	-1.2%	nt	0%	COc1ccc(N(C(=O)C(C)C)S(=O)(=O)c2ccc3ccccc3c2)cc1
1%	1.1%	0	-28%	CC(=O)N1N=C(c2cccc([N+](=O)[O-])c2)OC1c1ccc(Cl)cc1Cl (stereo not given)

Results in Rango-impB inh and miR-21 FLuc, for some of the entries so far:
Structure	Rango-impB inh	miR-21 FLuc
COc1ccc(CCN2C(=O)CC(NNC(=O)c3ccc(F)cc3)C2=O)cc1OC (stereo not given)	-1.0%	-2%
Cc1ccnc2nc(C(=O)OCC(=O)c3ccc(NC(=O)CC(C)C)cc3)nn12	-2.2%	nt

The list goes on.
Rango release inh	Rango-impB inh	GLA inh pH 4.5	miR-21 FLuc	Compound
?	?	-5	-41%	C/C(=N\Nc1ccc([N+](=O)[O-])cc1)c1cccc(N)c1
-8%	2.1%	nt	-1%	CC1=NN(C(N)=S)C(=O)C1N=Nc1cc(Cl)ccc1Cl (stereo not given)
17%	1.5%	3	-3%	CCCN1Cc2cccc(C(=O)Nc3ccc(S(=O)(=O)N4CCCCCC4)cc3)c2C1=O
16%	0.6%	11&2	-3%	NC(=O)NCC1CC1
-3%	?	nt	nt	Cc1ccnc2nc(C(=O)OCC(=O)N(Cc3ccccc3)C(C)C)nn12
0%	3.6%	nt	-1%	COc1ccc(CCNC(=O)c2c(O)c3ccccc3[nH]c2=O)cc1OC
4%	-4.0%	nt	nt	COc1ccc(C(CNC(=O)c2cccc(S(=O)(=O)N3CCOCC3)c2)N2CCCC2)cc1 (stereo not given)
2%	-4.2%	nt	-1%	Cc1ccc(S(=O)(=O)N2CC(C)N(C(=O)N3CCOCC3)C2C)cc1 (stereo not given)
?	0.0%	nt	nt	CCCCN1CCNC[C@@H]1c1ccccc1
?	?	1	-15%	COc1ccc(CNC(=O)c2cc3c(=O)n4ccccc4nc3n(CC3CCCO3)c2=N)cc1 (stereo not given)
8%	1.2%	-8	-29%	COc1ccccc1NC(=S)N1CCC(c2nc3cc(C)c(C)cc3[nH]2)CC1
13%	0.6%	nt	nt	CC(C)Cn1cnc2c(SCCc3ccccc3)nc(N)nc21
-11%	3.9%	7	-4%	COc1ccc(CCN(C(=O)c2ccco2)C(C(=O)NC2CCCC2)c2ccncc2)cc1OC (stereo not given)
53%	0.1%	0	-7%	Cc1cc(C(=O)c2ccccc2)c(NC(=O)CN2CCOCC2)s1
-16%	-2.0%	1	4%	COc1cc(NC(=S)NCc2ccco2)c(OC)cc1Cl
12%	2.9%	nt	0%	COc1ccc(NC(=O)COc2cccc(-n3cnnn3)c2)cc1
-7%	-0.5%	2	-7%	COC(=O)C1CCN(C(c2cc(OC)c(OC)c(OC)c2)c2sc3nc(C)nn3c2O)CC1 (stereo not given)
-8%	0.4%	nt	-1%	CCc1cccc(NC(=O)C2CCN(S(=O)(=O)c3ccc4[nH]c(=O)ccc4c3)CC2)c1
-13%	-0.7%	nt	nt	O=C1c2ccc(Cl)cc2S(=O)(=O)c2cccc(C(=O)N3CCN(c4ncc(Br)cn4)CC3)c21
16%	-8.1%	7	-4%	Cc1cc(NC(=O)COC(=O)c2ccc(S(=O)(=O)N3CCCC3)cc2)no1
-5%	?	9	-54%	CN(C)c1ccc(/C=N/NC(=O)CCCCCNC(=O)c2ccccc2)cc1
0%	-2.3%	nt	?	CC1CCN(Cc2c(C(=O)N/N=C/c3cc(Cl)ccc3O)nnn2-c2nonc2N)CC1
4%	0.7%	0	-1%	CCCS(=O)(=O)N1CCCC(C(=O)NCCCN2CCN(c3ccccc3F)CC2)C1 (stereo not given)
-8%	?	3	-3%	Cc1ccc(-c2ccc(CCC(=O)O)n2CC(=O)O)cc1
0%	-1.4%	3	5%	Cc1ccc(Nc2nc(N)nc(CN3CCN(Cc4ccc5c(c4)OCO5)CC3)n2)c(C)c1
-4%	-1.9%	-2	-18%	CCC1CCCCN1C(=S)Nc1ccc(C(C)=O)cc1 (stereo not given)
9%	1.7%	nt	-9%	Cc1cc(NC(=O)CCN2CC(C)OC(C)C2)ccc1Br (stereo not given)
1%	-0.7%	-5	-1%	O=C(COC(=O)CCC(=O)c1cccs1)NCc1ccccc1
-5%	5.7%	-2	-1%	Cc1ccc(Nc2ccc(S(=O)(=O)N3CCOCC3)cc2[N+](=O)[O-])cc1C
-13%	-0.8%	nt	nt	Cc1ccc(C2(C)NC(=O)N(CC(=O)N(c3ccccc3)C3CCS(=O)(=O)C3)C2=O)cc1 (stereo not given)
15%	-2.4%	4	-1%	CCN(CC)S(=O)(=O)c1ccc(Cl)c(NC(=O)COc2ccc(OC)cc2[N+](=O)[O-])c1
3%	-0.3%	2	-15%	CCOc1ccc(S(=O)(=O)N2CCN(c3ccccc3F)CC2)c2cccnc12
-11%	-0.3%	nt	-1%	COc1ccc(CNC(=O)CCC2N=C3c4ccccc4N=C(SCC(=O)NCC4CCCO4)N3C2=O)cc1 (stereo not given)
11%	4.8%	-5	4%	CC(=O)Nc1c(Nc2ccccc2)c2ccccc2oc1=O
-1%	-2.7%	8	-1%	CS(=O)(=O)N1CCC(Oc2ccccc2C(=O)N2CCN(CC3CC3)CC2)CC1
-3%	4.1%	-4	-4%	COc1ccc(C2C(C(=O)Nc3ccc(OC)c(OC)c3)c3ccccc3C(=O)N2C)cc1 (stereo not given)
-10%	-0.8%	nt	-4%	O=C(Cc1ccccc1)Nc1ccc(C(=O)NCc2ccccc2)cc1
4%	1.1%	nt	1%	CCC(O)(CC)C(=O)N(Nc1ccc(C)cc1)c1ccc(C)cc1
2%	-5.0%	nt	-3%	COc1ccc(Oc2ccc(C(F)(F)F)cc2NC(=O)CC(CC(=O)O)c2ccccc2)cc1 (stereo not given)
9%	7.3%	nt	nt	NS(=O)(=O)c1ccc(CCNC(=O)COC(=O)COc2cccc(C(F)(F)F)c2)cc1

Not all compounds are listed. The share of hits here may be higher or lower than overall.
